Source: PubChem BioAssay
Calb FLC – C. albicans growth inhibition with fluconazole, primary screen, CaCi-2 strain, Alamar Blue fluorescence | C. albicans CaCi-2 (fluconazole-resistant clinical isolate) + fluconazole, 48 h | growth inhibition, % (concentration not given with the values) | 0.57% of 300,000 active | AID 1979, 2009;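 active means most replicates above 75%; inconclusive means exactly half above 75%; inactive means most below 75%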;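 further: all wells also contain fluconazole at 8 µg/ml as a sub-toxic cotreatment; 0% = median of DMSO wells and 100% = median of geldanamycin control wells; wells of about 8 µL received 7.5 nL stock; the first replicate is given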
LANA-H2A inh – blockers of LANA interaction with H2A/H2B – biochemical, FP readout, HTS, primary screen; cell-free LANA-H2A/H2B peptide, fluorescence polarization; inhibition, % (test concentration not listed); 0.6% of 320,000 active; in the data active means inhibition mostly above about 10%, no sharp cut-off; inactive means mostly below about 6.7%;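 further: stock transfer was 7.5 nL into about 10 µL; 0% = median of vehicle wells and 100% = median of positive control wells; one replicate is shown; the record names a cut of 25% in any replicate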
AF4-AF9 inh – inhibitors of AF4 peptide binding to AF9, primary screen, biochemical, AlphaScreen, biotin-AF4 peptide, FLAG-AF9, single point; inhibition, % at 10 µM; 0.47% of 350,000 active; AID 651704, 2012; Protein AF-9 (Homo sapiens), P42568;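 active means every replicate reaching a set inhibition limit, whatever the replicate mean, cut at about 25% in these data; inconclusive means mean inhibition reaches that limit but some replicates miss it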;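 further: 0% = plate neutral control median and 100% = total signal loss; the record names both 10 and 1 µM as test concentration; the first replicate is given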
Target sequence (P42568 whole entry, looked up): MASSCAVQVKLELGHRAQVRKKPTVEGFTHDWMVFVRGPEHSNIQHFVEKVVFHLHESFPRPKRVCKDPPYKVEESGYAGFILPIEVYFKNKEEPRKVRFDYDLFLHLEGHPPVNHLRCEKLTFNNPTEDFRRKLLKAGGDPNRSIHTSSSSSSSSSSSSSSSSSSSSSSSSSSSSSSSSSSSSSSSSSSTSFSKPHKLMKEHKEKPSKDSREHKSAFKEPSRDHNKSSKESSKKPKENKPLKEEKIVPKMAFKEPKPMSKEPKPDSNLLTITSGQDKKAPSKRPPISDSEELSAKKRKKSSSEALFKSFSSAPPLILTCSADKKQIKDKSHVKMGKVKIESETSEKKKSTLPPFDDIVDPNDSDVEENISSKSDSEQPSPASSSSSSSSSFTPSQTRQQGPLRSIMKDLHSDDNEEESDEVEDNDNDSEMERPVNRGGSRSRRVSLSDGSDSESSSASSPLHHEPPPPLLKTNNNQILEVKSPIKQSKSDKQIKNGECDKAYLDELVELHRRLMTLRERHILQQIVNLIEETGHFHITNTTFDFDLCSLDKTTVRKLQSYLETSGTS
RanGTP-Imp inh – inhibitors of RanGTP-importin-beta interaction, primary screen, biochemical, FRET, CFP-Ran, YFP-importin-beta, homogeneous | cell-free CFP-Ran/YFP-importin-beta FRET ratio | 1.1% of 300,000 active | inhibition, % (test concentration not listed);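 active means most replicates above 15%; inconclusive means exactly half above 15%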;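 further: 0% = DMSO wells and 100% = Ran loaded with GDP instead of GTP; wells of about 40 µL received 100 nL stock; the first replicate is given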
T cruzi repl – inhibitors of intracellular T. cruzi growth, primary screen, luminescence, NIH3T3 host cells | 1.4% of 300,000 active | inhibition, % (no concentration beside the values) | T. cruzi beta-gal in NIH3T3, 90 h;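 active means mean inhibition across valid replicates above about 55%, limit read from the data; inconclusive means mean below that limit but half or more replicates reach it; inactive means mean below it, under half of replicates reach it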;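 further: signal also drops with host cell toxicity which is not excluded here; 0% = plate median of DMSO wells and 100% = zero luminescence signal; higher percent means less beta-gal luminescence so fewer parasites; stock transfer was 50 nL into about 50 µL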
Beta apoptosis – inhibitors of cytokine-induced beta cell apoptosis, primary screen, luminescence; INS-1E cytokine-induced death, ATP luminescence, 48 h; percent of positive-control rescue, neutral wells zero; protection from apoptosis, % (test concentration not listed); 0.8% of 300,000 active;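 active means all replicates at 75% or more, or half of them and the mean; inconclusive means half reach 75% but not the mean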;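 further: 0% = cytokine-treated negative control wells and 100% = positive control rescue; higher means more ATP so stronger rescue from cytokine killing; wells of about 40 µL received 100 nL stock; the first replicate is given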
Vif A3G – inhibitors of Vif binding to APOBEC3G peptide, primary screen, biochemical, TR-FRET, GST-Vif 1-94, biotin-A3G peptide, dose response retest (AID 1117319); Virion infectivity factor (Human immunodeficiency virus type 1 group M subtype B (isolate …; TR-FRET GST-Vif / biotin-A3G peptide binding; higher % means a stronger effect; test concentration not given here; strong numbers were not always called active; inhibition, %; hits with a dose series show IC50 in µM; 0.57% of 260,000 active;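 active means above the screen mean plus three standard deviations and confirmed in dose response; inconclusive means results disagree or hit not tested in dose response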;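 further: Vif residues 1-94 fused to GST binding biotinylated APOBEC3G peptide 110-148; 0% = full assay without inhibitor and 100% = GST in place of GST-Vif; retest series ran down from 100 µM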
A1 inh – caspase 3/7 activation in MEF A1-2A-BIM cells, primary screen, A1 inhibitor project, cell-based, luminescence, HTS | Caspase-Glo 3/7 luminescence, 3 h; percent of clofoctol response, vehicle zero | caspase activation, % (test concentration not listed) | 0.066% of 330,000 active | AID 2462, 2010;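 active means over half of replicate activation scores above 10%, or exactly half above 10 with the replicate mean above 10; inconclusive means replicate mean below 10 yet half the replicates above 10; inactive means over half of replicates below 10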;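 further: wells of about 30 µL received 50 nL stock; many hits fall short of the cut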
The depositor's hits bear a star; ? = inconclusive; nt = no result given; & = joins results of further samples.

SMILES | Calb FLC | LANA-H2A inh | AF4-AF9 inh | RanGTP-Imp inh | T cruzi repl | Beta apoptosis | Vif A3G | A1 inh
CC(NC(=O)COC(=O)C1=COCCO1)C12CC3CC(CC(C3)C1)C2 (stereo not given) | -21 | 2.4 | -0.1 | 0.7 | -5 | -8 | nt | -1.6
O=C(/C=C/Nc1nccs1)C(F)(F)Cl | 25 | -2.3 | -0.8 | -3.9 | 5 | -24 | nt | -0.1
Cc1nn(CCCC(=O)NCCCN2CCN(C)CC2)c(=O)c2c1sc1ccccc12 | -11 | 1.1 | 1.3 | 1.2 | 25 | -3 | nt | -0.3
COc1cccc(C(=O)NNC(=O)C(=O)N2CCCCC2)c1 | -3 | 3.2 | 0.4 | nt | -12 | -1 | 8% | 0.5
COc1ccc(N2CCN(Cc3nc4c(c(=O)n(C)c(=O)n4C)n3Cc3cccc(C)c3)CC2)cc1 | -2 | 3.6 | 33* | ? | 21 | -4 | 15% | -0.3
CCOc1cc(NC(=S)NCc2ccco2)c(OCC)cc1NC(=O)C1CC1 | -1 | 2.8 | nt | -0.9 | 19 | -4 | 6% | 0.2
CC1CCCC(NC(=O)c2ccc(COc3ccccc3)o2)C1C (stereo not given) | -22 | -7.4 | -1.8 | 6.8 | 12 | 5 | -2% | 0.1
COc1ccc(OCC(O)CNC(=O)c2cccs2)cc1 (stereo not given) | 0 | -11 | -3.4 | -0.9 | -20 | -5 | nt | 0.3
Cc1ccccc1NC(=O)CCN1CCc2ccccc2C1 | -20 | -0.6 | 0.8 | 1.5 | 11 | nt | 1% | -0.2
COc1ccc(S(=O)(=O)Nc2ccc3c(c2)C(=O)N([C@H](C)CO)C[C@H](C)[C@@H](CN(C)C(=O)Nc2ccc(C(F)(F)F)cc2)O3)cc1 | nt | -8.5 | 0.0&-9.9 | nt | nt | 1 | nt | -0.6
Cc1nn2c(-c3ccccn3)ccnc2c1Br | 9 | -11 | 1.0 | 1.4 | 26 | -2 | 4% | -0.1
CCCN(CC(=O)c1cc(C)n(C)c1C)S(=O)(=O)c1cccc(C(F)(F)F)c1 | 8 | 1.9 | nt | -0.6 | 26 | -3 | 21% | 0.0
Cc1ccc(-c2nc3ncccc3o2)cc1NC(=O)c1sc2ccccc2c1Cl | -4 | 3.6 | 3.8 | 3.2 | -9 | -1 | 2% | -0.4
Cc1nc2ccccc2nc1OCc1cccc([N+](=O)[O-])c1 | -6 | 8.2 | -1.0 | 0.6 | 10 | -8 | 2% | 0.8
CCOC(=O)C1CCN(C(=O)CNC(=O)c2nn(-c3ccc(OC)cc3OC)c(=O)c3ccccc23)CC1 | 1 | -5.2 | 0.6 | -0.2 | -4 | -4 | nt | 0.8
CC(C)CNC(=S)NNC(=O)c1ccc2c(c1)OCO2 | 12 | -1.7 | nt | ? | -15 | -2 | -3% | -0.2
COc1ccc(CCN2C(=O)CC(Cc3ccccc3)C2=O)cc1OC (stereo not given) | -3 | -2.4 | 0.8 | -2.0 | -6 | -7 | -2% | 0.7
Cc1ccc(S(=O)(=O)N2CCN(C(=O)COC(=O)c3ccccn3)CC2)c(C)c1 | -9 | -1.2 | -1.3 | 1.1 | -6 | 0 | 3% | -0.5
CN(C)CCNC(=O)c1onc(CSc2nc3ccccc3[nH]2)c1C(=O)NCCN(C)C | 8 | -0.6 | 2.5 | -1.0 | -12 | -1 | nt | 0.5
CCOC(=O)C1=C(C)NC2=C(C(=O)CCC2)C1c1ccc(N(C)C)cc1 (stereo not given) | 4 | 3.0 | nt | 3.0 | 5 | -8 | 2% | 0.4
CC1CCCCN1C(=O)CSc1nnc(-c2cccs2)o1 (stereo not given) | 0 | -1.4 | 0.1 | -0.9 | 4 | -3 | nt | 0.4
CC(C)(C)c1ccc(OCC(=O)N2CCN(C=O)CC2)cc1 | 5 | -3.1 | nt | 6.4 | -6 | -8 | 0% | 1.5
COc1ccccc1N1CCN(S(=O)(=O)c2cccc(F)c2)CC1 | 19 | -1.3 | nt | -3.9 | 13 | 2 | 1% | 0.1
O=C1CC(Sc2ccc(Cl)cc2)C(=O)N1c1ccc2c(c1)OCCO2 (stereo not given) | 5 | 1.9 | -4.5 | 3.3 | 19 | -28 | nt | 0.7
Cc1cccc(NC(=O)c2ccccc2C(=O)O)c1 | -2 | -3.1 | nt | -0.1 | -4 | -8 | 22% | 1.4
Further entries follow.
SMILES | Calb FLC | LANA-H2A inh | AF4-AF9 inh | RanGTP-Imp inh | T cruzi repl | Beta apoptosis | Vif A3G | A1 inh
CN(C)Cc1ccc(CNC(=O)COc2ccc3ccccc3c2)cc1 | 3 | 0.4 | 0.0 | -8.9 | 26 | -2 | nt | 0.5
COc1cc(/C=C/C(=O)O)cc(S(=O)(=O)N(C)CCO)c1OC | -2 | 6.3 | nt | -1.0 | -6 | -7 | 10% | 1.3
Cc1cc(/C=N\O)c(C)n1-c1ccncc1 | 5 | -3.9 | nt | -0.4 | -7 | -3 | -6% | -0.1
CSc1ccccc1NC(=O)CN(C)S(=O)(=O)c1ccc(F)cc1 | 10 | -2.2 | nt | 1.5 | -20 | -23 | ? | 0.2
Fc1ccc(OCCCCCCN2CCCC2)cc1 | 5 | -0.4 | 3.8 | -1.3 | 53 | 12 | 1% | -0.3
O=C(O)c1cccc2c1C(=O)c1ccc(N3CCCCC3)cc1S2(=O)=O | nt | -3.1 | -14 | nt | nt | 1 | nt | 0.8
CCCN(C#N)c1nc(NCC)nc(NC(C)C)n1 | 29 | 13 | nt | -1.7 | -4 | 2 | 18% | 0.3
CCN(CC(=O)Nc1ccc(OC)cc1)C(=O)c1ccc(=O)n(Cc2ccccc2)n1 | nt | 1.2 | 3.4 | nt | nt | 2 | -1% | 0.3
Cc1cc(C(=O)OC(C(=O)Nc2ccc(C)c(Cl)c2)c2ccccc2)c(C)o1 (stereo not given) | -81 | -0.5 | nt | -0.6 | 23 | -1 | nt | 1.2
CCOC(=O)CNC(=O)CSc1nc(C)cc(C)c1C#N | -4 | 1.3 | nt | 5.9 | -2 | 1 | 16% | -1.0
CN(C)C(=O)c1ccc(COc2ccccc2Br)o1 | 4 | 6.0 | nt | 3.3 | 26 | -2 | 68% | 0.5
O=S(=O)(c1cccc(-c2n[nH]c(=S)n2Cc2ccccc2)c1)N1CCOCC1 | 3 | -2.1 | -7.9 | 5.5 | -4 | 5 | -4% | 0.1
CCC(C)n1c(=N)c(C#N)cc2c(=O)n3cccc(C)c3nc21 (stereo not given) | -4 | 6.0 | 0.6 | -0.3 | -8 | -4 | -3% | -0.3
O=C(c1ccccc1)N1CCCCC(Sc2nnnn2-c2ccccc2)C1=O (stereo not given) | -4 | -3.3 | nt | -2.5 | 0 | 3 | 0% | 1.7
O=c1cc(-c2ccccc2)nc2nc(-c3ccco3)[nH]n12 | -11 | 1.5 | nt | 2.6 | -9 | 2 | 20% | 0.7
OCCN(CCO)c1ccc2ccccc2c1 | 21 | -1.6 | -0.2 | 1.2 | -7 | -12 | 10% | -0.4
CC1=C(C)CC(C(=O)N2CCN(Cc3ccc4c(c3)OCO4)CC2)C(C(=O)O)C1 (stereo not given) | -5 | 6.1 | -0.2 | 0.2 | -18 | -4 | -5% | -0.7
Cc1cc(NC(=O)CCC(=O)N(C2CC2)C2(C(=O)NC3CCCC3)CCC(C)CC2)no1 (stereo not given) | -2 | 2.3 | nt | 2.9 | 3 | nt | 0% | -0.5
NC(=O)C1CCN(C(=O)NC2CC(=O)N(c3ccc4c(c3)OCCO4)C2)CC1 (stereo not given) | 0 | 3.0 | 0.6 | -1.6 | -4 | -2 | 2% | -0.3
CCOC(=O)N1CCN(C(=O)c2ccc3c(=O)n(CCC4=CCCCC4)c(=O)[nH]c3c2)CC1 | 47 | 3.0 | nt | 1.2 | 0 | 6 | -1% | 0.3
Cc1ccccc1NS(=O)(=O)c1c(C(=O)N2CCCCCC2)c(C)n(C)c1C | -4 | -1.1 | -0.4 | -0.4 | 6 | 0 | nt | 0.4
Cc1ccc(CS(=O)(=O)CCC(=O)NCC2CCCO2)cc1 (stereo not given) | -1 | -2.6 | nt | ? | -14 | -1 | -3% | 0.2
Cc1c(C(=O)N(C)CCOc2ccccc2)oc2c(Cl)cccc12 | nt | -1.9 | 0.1 | nt | nt | -7 | -2% | -0.5
CCOCc1nnc(NC(=O)CSc2ccccc2)s1 | -8 | 2.1 | nt | 2.2 | 5 | 6 | -2% | -0.5
COc1nc(OC)nc(N2CCC(C(=O)Nc3cccc4ccccc34)CC2)n1 | -23 | -0.5 | nt | -1.0 | -4 | 1 | -7% | 0.5
(more compounds)
SMILES | Calb FLC | LANA-H2A inh | AF4-AF9 inh | RanGTP-Imp inh | T cruzi repl | Beta apoptosis | Vif A3G | A1 inh
COC(=O)CC(NC(=O)c1cccs1)c1ccc(OC)c(OC)c1 (stereo not given) | -1 | 0.4 | -1.3 | -3.1 | -9 | -3 | ? | -0.4
COc1ccc(NC(=O)c2cccnc2)cc1 | -1 | -5.3 | 3.9 | 1.8 | -12 | 70 | nt | -1.0
CN(C)CCCOC(=O)c1ccc(Br)cc1 | 4 | 0.8 | nt | -1.8 | 19 | -7 | -1% | 0.6
CCOC(=O)/C(C#N)=C/c1cn(CCC(=O)O)nc1-c1ccc(Br)cc1 | 2 | -1.0 | 9.4 | ? | -4 | 2 | 24% | 1.1
Cc1ccc(NC(=O)NCc2cccnc2)cc1C | 7 | 3.3 | -0.8 | ? | 11 | -4 | -1% | 1.0
COc1cccc(NC(=O)c2ccc3snnc3c2)c1 | 1 | 7.3 | nt | -3.0 | 17 | 4 | ? | 0.1
CC(C)c1cccc(-c2ccc3c(c2)S(=O)(=O)c2cccc(C(=O)NCc4ccccc4)c2C3=O)c1 | nt | 14 | -5.8 | nt | nt | 15 | nt | 2.4
Cc1sc2ncnc(N3CCC(C(=O)N(C)CC(=O)Nc4ccccc4Cl)CC3)c2c1C | 5 | 0.9 | 20 | 2.9 | 4 | 1 | nt | -0.3
CN(Cc1ccccc1)C(=O)CSc1n[nH]c(N)n1 | 5 | -7.6 | 1.4 | -1.7 | -9 | -6 | nt | 0.1
O=C(CCN1C(=O)c2ccccc2S1(=O)=O)NCc1ccccc1Cl | 7 | nt | 0.7 | 1.3 | 2 | nt | -3% | nt
CC1CCCN(Cc2nc3c(c(=O)n(C)c(=O)n3C)n2CCCc2ccccc2)C1 (stereo not given) | -2 | -4.2 | nt | -4.7 | nt | -3 | 1% | 0.3
Cc1c(C#N)c(O)n(CCO)c(=O)c1N=Nc1ccc2c(c1)COC2=O | -3 | 5.3 | 3.5 | -5.8 | 10 | 14 | nt | -0.2
CCc1ccc(NC(=O)CSc2nnc(-c3cnccn3)n2C)cc1 | -11 | 5.0 | 1.1 | -2.0 | 1 | 1 | -1% | 0.7
O=C(CSc1nnc(CNC(=O)c2c(F)cccc2Cl)o1)Nc1ccccc1 | -7 | -0.8 | nt | -3.1 | -22 | -8 | 3% | 2.1

This is a random part of the collection, and some 4.3% of all compounds hit somewhere here.
